Screening results deposited in PubChem by Broad Institute.
HIV Env fusion: inhibitors of HIV Env-mediated cell fusion; inhibition, % at 12.3 µM; 360,000 tested, 1.1% active; HeLa-JRFL Env/CEM21 cell fusion, luciferase;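 active = mean replicate inhibition score of at least 50 and every replicate individually at or above 50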;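 note: 0% = plate neutral controls and 100% = maraviroc near 300 nM; one replicate is shown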
UUG fidelity: modulators of start codon recognition fidelity in yeast; S. cerevisiae UUG-firefly luciferase reporter, luminescence/redox ratio; 350,000 tested, 0.13% active; activity score, % at 18.7 µM;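 active = replicate mean at a twofold rise or more, about +100% in these data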;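 note: firefly luciferase made from a UUG start codon reports start codon fidelity; reporter light over untreated wells divided by growth signal over untreated wells; some hits fall short of that in this replicate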
The depositor's hits bear a star; [ ] = another dose, or the depositor's remark. These rows are one share of the data. The share of hits here may be higher or lower than overall.

SMILES | HIV Env fusion | UUG fidelity
CN1C(=O)CS(=O)(=O)C1c1ccccc1 (stereo not given) | 2.8[16.7 µM] | -18.5
C[C@@H]1CCCCO[C@@H](CN(C)C(=O)Nc2cccc3ccccc23)[C@H](C)CN([C@H](C)CO)C(=O)c2cc(NC(=O)Nc3ccc4c(c3)OCO4)ccc2O1 | -8.5[16.7 µM] | -3.3
C[C@@H]1CN([C@H](C)CO)C(=O)c2cccc(NC(=O)c3nc4ccccc4s3)c2O[C@H]1CN(C)C(=O)Nc1ccccc1 | 6.1[16.7 µM] | 18.7
C[C@H](CO)N1C[C@H](C)[C@H](CN(C)C(=O)c2ccccc2)OCCCC[C@H](C)Oc2ccc(NS(=O)(=O)c3ccc(Cl)cc3)cc2C1=O | -137.7[16.7 µM] | 7.6
C[C@H]1CN([C@@H](C)CO)C(=O)Cc2cc(NC(=O)Nc3ccc(C(F)(F)F)cc3)ccc2O[C@@H]1CN(C)Cc1ccc(C(=O)Nc2ccccc2N)cc1 | 26.7[16.7 µM] | -1.8
C[C@@H]1CN([C@@H](C)CO)C(=O)c2cc(NS(=O)(=O)c3ccc(Cl)cc3)ccc2O[C@H]1CN(C)Cc1ccc(-c2ccccc2)cc1 | -24.0[16.7 µM] | 3.6
C[C@@H]1CN([C@H](C)CO)C(=O)c2cc(NC(=O)CCCN(C)C)ccc2O[C@@H](C)CCCCO[C@@H]1CN(C)Cc1ccc2c(c1)OCO2 | -14.6[16.7 µM] | 17.2
COc1ccc(NC(=O)Nc2ccc3c(c2)C(=O)N([C@@H](C)CO)C[C@H](C)[C@H](CN(C)C(=O)CCC(F)(F)F)OCCCC[C@@H](C)O3)cc1 | -3.7[16.7 µM] | 7.1
Cc1ccccc1S(=O)(=O)NCC[C@@H]1CC[C@H](NC(=O)C2CCCC2)[C@H](CO)O1 | 17.9[16.7 µM] | 6.2
Cn1cnc(S(=O)(=O)N[C@@H]2CC[C@H](CC(=O)Nc3ccccc3)O[C@H]2CO)c1 | -6.9[16.7 µM] | -10.5
C[C@@H]1CCCCO[C@H](CN(C)S(=O)(=O)c2cccs2)[C@@H](C)CN([C@H](C)CO)C(=O)c2cc(NC(=O)CCC(F)(F)F)ccc2O1 | 11.9[16.7 µM] | 10.6
CC(C)CC#Cc1cnc2c(c1)C(=O)N([C@@H](C)CO)C[C@@H](C)[C@@H](CN(C)C(=O)c1ccccc1F)O2 | 10.2[16.7 µM] | 3.0
O=C(C[C@@H]1CC[C@H](NC(=O)C2CCOCC2)[C@H](CO)O1)Nc1nccs1 | -3.0[16.7 µM] | -19.0
C[C@H]1CN([C@@H](C)CO)C(=O)c2cc(C3=CCCC3)cnc2O[C@H]1CN(C)C | -1.9[16.7 µM] | -8.6
COc1ccc(NC(=O)Nc2ccc3c(c2)C(=O)N([C@@H](C)CO)C[C@@H](C)[C@@H](CN(C)C(=O)Cc2ccccc2)OCCCC[C@@H](C)O3)cc1 | 5.6[16.7 µM] | 9.0
COC(=O)C[C@H]1CC[C@@H](NC(=O)Nc2ccc(C(F)(F)F)cc2)[C@H](CO)O1 | 14.8[16.7 µM] | -4.5
CCCN(C)C[C@@H]1Oc2cc(C#Cc3ccccc3OC)ccc2S(=O)(=O)N([C@@H](C)CO)C[C@@H]1C | 24.8[16.7 µM] | 6.1
C[C@@H]1CN([C@H](C)CO)C(=O)c2cccc(NC(=O)c3nc4ccccc4s3)c2O[C@H]1CN(C)Cc1ccc(-c2ccccc2)cc1 | 4.0[16.7 µM] | 4.2
C[C@H](CO)N1C[C@H](C)[C@@H](CN(C)C(=O)Nc2ccc3c(c2)OCO3)Oc2ccc(NC(=O)Nc3ccc(F)cc3)cc2CC1=O | -6.7[16.7 µM] | -10.1
CN1C(=O)c2cc(NC(=O)Cc3ccccc3)ccc2OC[C@@H]2O[C@@H](CC(=O)NCc3ccc(Cl)cc3)CC[C@@H]21 | 17.2[16.7 µM] | 7.2
C[C@H]1CCCCO[C@H](CN(C)C(=O)c2ccccc2)[C@@H](C)CN([C@@H](C)CO)C(=O)c2cc(NS(=O)(=O)c3ccccc3)ccc2O1 | -13.2[16.7 µM] | -5.9
COc1ccccc1-c1cnc2c(c1)C(=O)N([C@@H](C)CO)C[C@@H](C)[C@H](CN(C)Cc1ccncc1)O2 | -17.2[16.7 µM] | -7.2
C[C@@H]1CN([C@H](C)CO)C(=O)c2cc(NC(=O)Nc3ccccc3)ccc2O[C@@H](C)CCCCO[C@H]1CN(C)C(=O)c1ccccc1 | 8.9[16.7 µM] | 0.7
C[C@@H]1CN([C@@H](C)CO)S(=O)(=O)c2ccc(C3=CCCCC3)cc2O[C@H]1CN(C)C(=O)C1CCOCC1 | -1.3[16.7 µM] | 7.4
C[C@@H]1CN([C@H](C)CO)C(=O)c2cc(NC(=O)Cn3cnnn3)ccc2O[C@@H]1CN(C)CC1CCCCC1 | 17.5[16.7 µM] | 5.9
SMILES | HIV Env fusion | UUG fidelity
CCCC#Cc1cnc2c(c1)C(=O)N([C@@H](C)CO)C[C@H](C)[C@@H](CN(C)Cc1ccc(F)cc1)O2 | -9.8[16.7 µM] | -7.6
CO[C@@H]1CN(C)C(=O)c2ccc(NC(C)=O)cc2OC[C@@H](C)N(C(=O)C2CCC2)C[C@H]1C | 1.6[16.7 µM] | -9.1
C[C@@H]1CCCCO[C@H](CN(C)C(=O)c2ccccc2)[C@H](C)CN([C@@H](C)CO)C(=O)c2cc(NC(=O)NC3CCCCC3)ccc2O1 | -32.0[16.7 µM] | 19.0
C[C@@H]1CN([C@H](C)CO)C(=O)c2cc(C#CC3(O)CCCC3)cnc2O[C@H]1CN(C)C(=O)Cc1cccnc1 | 6.9[16.7 µM] | -7.1
C[C@@H]1CN([C@@H](C)CO)C(=O)c2cc(-c3cccc(F)c3)cnc2O[C@@H]1CN(C)C(=O)c1cnccn1 | 0.7[16.7 µM] | -9.7
C[C@@H]1CCCCO[C@H](CN(C)C(=O)CCC(F)(F)F)[C@H](C)CN([C@H](C)CO)C(=O)c2cc(NS(C)(=O)=O)ccc2O1 | 19.1[16.7 µM] | 25.8
C[C@@H]1CN([C@@H](C)CO)S(=O)(=O)c2ccc(C#Cc3ccc(F)cc3)cc2O[C@@H]1CN(C)C(=O)CN(C)C | 17.8[16.7 µM] | 22.4
Cc1noc(C)c1S(=O)(=O)N(C)C[C@H]1OCCCC[C@H](C)Oc2ccc(NC(=O)NC(C)C)cc2C(=O)N([C@H](C)CO)C[C@@H]1C | -32.1[16.7 µM] | -1.8
Cc1noc(C)c1S(=O)(=O)N(C)C[C@@H]1OCCCC[C@@H](C)Oc2ccc(NS(C)(=O)=O)cc2C(=O)N([C@H](C)CO)C[C@H]1C | -26.2[16.7 µM] | 5.0
Cc1ccc(-c2ccc3c(c2)O[C@H](CN(C)C(=O)Nc2ccc(C(F)(F)F)cc2)[C@@H](C)CN([C@H](C)CO)S3(=O)=O)cc1 | 57.4*[16.7 µM] | -0.9
C[C@H](CO)N1C[C@H](C)[C@H](CN(C)C(=O)c2ccccn2)Oc2ncc(C3=CCCCC3)cc2C1=O | 1.0[16.7 µM] | 0.9
COc1ccc(CN(C)C[C@H]2OCCCC[C@@H](C)Oc3ccc(NC(=O)NC4CCCCC4)cc3C(=O)N([C@H](C)CO)C[C@H]2C)cc1 | 20.4[16.7 µM] | 12.3
Cc1ccc(S(=O)(=O)N(C)C[C@@H]2Oc3c(NS(=O)(=O)c4c(C)noc4C)cccc3C(=O)N([C@H](C)CO)C[C@@H]2C)cc1 | 16.4[16.7 µM] | 12.3
C[C@H]1CN([C@@H](C)CO)C(=O)Cc2cc(NC(=O)Nc3ccc(C(F)(F)F)cc3)ccc2O[C@H]1CN(C)CC1CC1 | 32.8[16.7 µM] | 9.1
C[C@@H]1CN([C@@H](C)CO)C(=O)Cc2cc(NC(=O)Nc3ccc(F)cc3)ccc2O[C@H]1CN(C)C(=O)NC1CCCCC1 | -10.3[16.7 µM] | 2.4
C[C@@H]1CN([C@@H](C)CO)C(=O)c2cccc(NS(=O)(=O)c3ccc(Cl)cc3)c2O[C@H]1CN(C)Cc1ccc(C(F)(F)F)cc1 | 3.7[16.7 µM] | -0.7
CNC[C@H]1OCCCC[C@@H](C)Oc2ccc(NC(=O)Nc3ccc(F)cc3)cc2C(=O)N([C@H](C)CO)C[C@H]1C | -14.3[16.7 µM] | 14.9
CC(C)NC(=O)Nc1ccc2c(c1)C(=O)N([C@@H](C)CO)C[C@H](C)[C@@H](CN(C)S(C)(=O)=O)OCCCC[C@H](C)O2 | -16.2[16.7 µM] | 10.8
C[C@H](CO)N1C[C@H](C)[C@@H](CN(C)Cc2ccc(Oc3ccccc3)cc2)Oc2ccc(NC(=O)NC3CCCCC3)cc2CC1=O | 5.5[16.7 µM] | -5.0
C[C@H]1CN([C@@H](C)CO)C(=O)Cc2cc(NC(=O)Nc3cccc4ccccc34)ccc2O[C@H]1CN(C)Cc1ccc(Cl)c(Cl)c1 | 12.3[16.7 µM] | -10.2
Cc1ccc(S(=O)(=O)Nc2ccc3c(c2)C(=O)N([C@@H](C)CO)C[C@H](C)[C@@H](CN(C)C(=O)C2CCCCC2)OCCCC[C@@H](C)O3)cc1 | -30.8[16.7 µM] | 5.3
C[C@@H]1CN([C@@H](C)CO)C(=O)c2cc(NS(C)(=O)=O)ccc2O[C@@H](C)CCCCO[C@H]1CN(C)C(=O)Nc1ccc(F)cc1 | 17.4[16.7 µM] | 9.3
C[C@@H]1CCCCO[C@H](CN(C)S(=O)(=O)c2cn(C)cn2)[C@@H](C)CN([C@H](C)CO)C(=O)c2cc(NS(=O)(=O)c3ccc(Cl)cc3)ccc2O1 | 6.3[16.7 µM] | 36.8
C[C@@H]1CN([C@@H](C)CO)C(=O)c2cc(NS(=O)(=O)c3ccccc3)ccc2O[C@@H]1CN(C)Cc1ccccc1 | 1.7[16.7 µM] | 11.6
Cc1noc(C)c1NC(=O)Nc1ccc2c(c1)CC(=O)N([C@@H](C)CO)C[C@@H](C)[C@@H](CN(C)S(=O)(=O)c1ccc(Cl)cc1)O2 | -23.5[16.7 µM] | 14.8

No new results follow: an excerpt of the list.
SMILES | HIV Env fusion | UUG fidelity
CCCC#Cc1cnc2c(c1)C(=O)N([C@@H](C)CO)C[C@H](C)[C@@H](CN(C)Cc1ccc(F)cc1)O2 | -9.8[16.7 µM] | -7.6
CO[C@@H]1CN(C)C(=O)c2ccc(NC(C)=O)cc2OC[C@@H](C)N(C(=O)C2CCC2)C[C@H]1C | 1.6[16.7 µM] | -9.1
C[C@@H]1CCCCO[C@H](CN(C)C(=O)c2ccccc2)[C@H](C)CN([C@@H](C)CO)C(=O)c2cc(NC(=O)NC3CCCCC3)ccc2O1 | -32.0[16.7 µM] | 19.0
C[C@@H]1CN([C@H](C)CO)C(=O)c2cc(C#CC3(O)CCCC3)cnc2O[C@H]1CN(C)C(=O)Cc1cccnc1 | 6.9[16.7 µM] | -7.1
C[C@@H]1CN([C@@H](C)CO)C(=O)c2cc(-c3cccc(F)c3)cnc2O[C@@H]1CN(C)C(=O)c1cnccn1 | 0.7[16.7 µM] | -9.7
C[C@@H]1CCCCO[C@H](CN(C)C(=O)CCC(F)(F)F)[C@H](C)CN([C@H](C)CO)C(=O)c2cc(NS(C)(=O)=O)ccc2O1 | 19.1[16.7 µM] | 25.8
C[C@@H]1CN([C@@H](C)CO)S(=O)(=O)c2ccc(C#Cc3ccc(F)cc3)cc2O[C@@H]1CN(C)C(=O)CN(C)C | 17.8[16.7 µM] | 22.4
Cc1noc(C)c1S(=O)(=O)N(C)C[C@H]1OCCCC[C@H](C)Oc2ccc(NC(=O)NC(C)C)cc2C(=O)N([C@H](C)CO)C[C@@H]1C | -32.1[16.7 µM] | -1.8

Going on with the list:
SMILES | HIV Env fusion | UUG fidelity
C[C@H](CO)N1C[C@H](C)[C@@H](CN(C)C(=O)Cc2cccnc2)Oc2ncc(C#Cc3ccccc3F)cc2C1=O | 3.0[16.7 µM] | -9.6
CS(=O)(=O)Nc1ccc2c(c1)[C@@H]1C[C@@H](CC(=O)N3CCc4ccccc4C3)O[C@H](CO)[C@@H]1O2 | 62.8*[16.7 µM] | 2.5
C[C@H](CO)N1C[C@H](C)[C@H](CN(C)Cc2ccccc2)Oc2ccc(NC(=O)Cn3cnnn3)cc2CC1=O | 8.6[16.7 µM] | -0.4
C[C@@H]1CN([C@H](C)CO)C(=O)c2cccc(NC(=O)C3CC3)c2O[C@H]1CN(C)C | 12.7[16.7 µM] | -17.7
CO[C@H]1CN(C)C(=O)c2cc(NC(=O)C3CC3)ccc2OC[C@@H](C)N(C(=O)c2ccncc2)C[C@@H]1C | -25.1[16.7 µM] | 1.1
O=C(C[C@@H]1C=C[C@@H](NC(=O)c2ccc3c(c2)OCO3)[C@H](CO)O1)NCc1ccc(Oc2ccccc2)cc1 | 18.6[16.7 µM] | -5.6
C[C@@H]1CN([C@H](C)CO)C(=O)c2cccc(NC(=O)C3CC3)c2O[C@H]1CN(C)C(=O)NC1CCCCC1 | -0.8[16.7 µM] | 9.0
CC(=O)N(C)C[C@H]1Oc2cc(-c3ccc(F)cc3)ccc2S(=O)(=O)N([C@@H](C)CO)C[C@@H]1C | -30.3[16.7 µM] | 6.1
CCC(=O)N(C)C[C@H]1Oc2ncc(C#Cc3ccccc3OC)cc2C(=O)N([C@@H](C)CO)C[C@H]1C | -30.3[16.7 µM] | 40.1
C[C@H](CO)N1C[C@H](C)[C@H](CN(C)S(=O)(=O)c2ccc(F)cc2)Oc2ccc(NS(=O)(=O)c3ccccc3)cc2CC1=O | 85.6*[16.7 µM] | 2.6
C[C@@H]1CN([C@H](C)CO)C(=O)c2cc(NC(=O)NC3CCCCC3)ccc2O[C@@H](C)CCCCO[C@@H]1CN(C)Cc1ccc(C(=O)O)cc1 | 12.4[16.7 µM] | 5.0
CC(C)CC#Cc1ccc2c(c1)O[C@@H](CN(C)C(=O)Cc1cccnc1)[C@H](C)CN([C@@H](C)CO)S2(=O)=O | 16.4[16.7 µM] | -4.2
